NS1 inh: influenza NS1 inhibition; S. cerevisiae slowed by influenza A NS1, growth recovery by OD600; Potency, µM (highest dose often 46.1 µM), inactives show at the top dose activity, positive = more growth; hit rate 0.4% among 270,000; active means well fitted rising curve with a large enough effect; inconclusive means small, poorly fitted or top-dose-only effect; inactive means no such curve, though single readings can be large or run the other way; further: nearly all actives have a fitted effect of over 50% in size
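In this qHTS, NS1 from influenza A is expressed in budding yeast, where it slows growth. Cells are switched from glucose to 2% galactose medium (pH 6.0, -URA), treated with compound, and growth recovery is read at OD600.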
Lassa entry inh: blocks Lassa virus binding to or entry into cells; Lassa virus pseudotype entry inhibition, cell reporter; control for the full effect not named in the record; AID 540256; hit rate 1.2% among 300,000; Potency, µM (titrated, usually from 37.9 µM), for the others: top-dose activity change, negative = inhibition, actives largely listed as inhibitors; active means well fitted inhibition curve with a large enough effect; inconclusive means small, poorly fitted or top-dose-only effect, or effect the other way; inactive means flat fitted curve, though single readings scatter; tested in HEK293 cells; further: on the % scale 0 is the no-effect control and ±100 the full control effect; nearly all actives have a fitted effect of over 50% in size; luciferase read-out
StopGo reporter: lowers the luciferase signal of an FMDV 2A StopGo reporter | Potency, µM (series often up to 57.9 µM), for inactives: at the highest dose signal change, negative = less light | human cells with a luciferase reporter of 2A StopGo recoding; control for the full effect not named in the record | AID 1159524 | hit rate 1.2% among 410,000; active = well fitted falling curve with a large enough effect; inconclusive = small, poorly fitted or top-dose-only effect; inactive = no such curve, though single readings can be large or run the other way; tested in HEK293T cells; further: on the % scale 0 is the no-effect control and ±100 the full control effect; nearly all actives have a fitted effect of over 45% in size; luciferase light after 4 h
SARS PLpro yeast: SARS-CoV PLP inhibition in yeast; Potency, µM (series often up to 32.9 µM), without a hit: top-dose activity, positive = growth rescue; hit rate 0.19% among 330,000; S. cerevisiae expressing SARS-CoV PLpro, growth rescue; control for the full effect not named in the record; AID 485353; active means well fitted rising curve with a large enough effect; inconclusive means small, poorly fitted or top-dose-only effect; inactive means no such curve, though single readings can be large or run the other way; further: 0% is about no effect; nearly all actives have a fitted effect of over 55% in size; growth read by luminescence after 48 h
Cruzain inh noDet: blocks cruzain activity in detergent-free assay. purified cruzain, Z-FR-AMC fluorescence, no detergent. Potency, µM, for inactives: max response, negative = inhibition, usual class: inhibitors. hit rate 2.3% among 200,000;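 further: plate controls were enzyme without inhibitor for no effect and buffer without enzyme for full effect; nearly all actives have a fitted effect of over 40% in size; top concentration of the series not given in the record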
Target sequence (P25779 123-467 limits assumed): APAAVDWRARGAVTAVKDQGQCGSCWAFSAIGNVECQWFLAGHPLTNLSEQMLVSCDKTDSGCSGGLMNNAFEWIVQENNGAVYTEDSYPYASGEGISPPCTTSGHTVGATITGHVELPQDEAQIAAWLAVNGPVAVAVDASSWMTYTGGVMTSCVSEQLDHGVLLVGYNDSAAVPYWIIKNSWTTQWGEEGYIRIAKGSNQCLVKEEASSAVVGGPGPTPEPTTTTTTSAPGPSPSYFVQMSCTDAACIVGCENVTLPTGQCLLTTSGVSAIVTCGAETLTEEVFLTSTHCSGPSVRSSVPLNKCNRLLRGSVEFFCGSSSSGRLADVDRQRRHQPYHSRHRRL
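Purified cruzain at 1.5 nM, pre-incubated 15 min with compound at room temperature in 100 mM sodium acetate pH 5.5, 5 mM DTT, 0.00005% Triton X-100. Reaction started with 2 uM Z-FR-AMC; AMC fluorescence increase over 60 s gives rate.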
MARV entry inh: Marburg virus entry inhibition; Marburg virus pseudotyped entry inhibition, cell reporter; control for the full effect not named in the record; about a third of the inactives were read at about 46 µM; Potency, µM (series often up to 37.8 µM), inactives show top-dose activity change, negative = inhibition, most hits filed as inhibitors; hit rate 1.8% among 300,000; active = well fitted inhibition curve with a large enough effect; inconclusive = small, poorly fitted or top-dose-only effect, or effect the other way; inactive = flat fitted curve, though single readings scatter; tested in HEK293 cells; about a fifth of its hits are not listed in these tables; further: on the % scale 0 is the no-effect control and ±100 the full control effect; luciferase read-out
RE007 growth inh: less growth of the S. pombe RE007 Vpr strain; AID 651644; S. pombe RE007 Vpr strain, BacTiter-Glo ATP luminescence, 24 h; control for the full effect not named in the record; Potency, µM (series often up to 92.2 µM), for the others: at the highest dose activity change, negative = less growth; hit rate 0.21% among 360,000; active = well fitted falling curve with a large enough effect; inconclusive = small, poorly fitted or top-dose-only effect; inactive = no such curve, though single readings can be large or run the other way;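 further: on the % scale 0 is the no-effect control and ±100 the full control effect; nearly all actives have a fitted effect of over 50% in size; the assay follows cell death caused by Vpr and the record does not say whether a fall means rescue or toxicity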
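Fission yeast RE007 carrying one integrated HIV-1 vpr copy, seeded at OD 0.01 in PMG+AL medium with 23 nL pinned compound. Grown 24 h at 30 degrees; viability read by BacTiter-Glo luminescence after 5 min.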
Cruzain inh Det: cruzain (T. cruzi) inhibition with detergent; AID 1478; Potency, µM, inactives show max response, negative = inhibition, hits mostly inhibitors; purified cruzain, Z-FR-AMC fluorescence, 0.01% Triton; hit rate 0.43% among 200,000; P25779;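 further: plate controls were neutral wells for no effect and buffer without enzyme for full effect; nearly all actives have a fitted effect of over 40% in size; top concentration of the series not given in the record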
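In this qHTS format, compounds are incubated with 1.5 nM cruzain for 15 min at room temperature before 2 uM Z-FR-AMC is added. Release of AMC is followed at 360/450 nm, and progress is taken as the 60 s fluorescence difference.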
Active calls of the source: *; ? = inconclusive; / = no result given; & = joins results of further samples; [ ] = remark or other dose. Unless noted, the call rests on the fitted dose curve; in most records, active means well fitted curve in the direction sought with a large enough effect; inconclusive means small, poorly fitted or top-dose-only effect, or another doubt; inactive means no such curve, though single readings can be large; an effect the other way counts as inactive or inconclusive. Potency means the concentration at half of the fitted maximal effect. Outcome played no part in choosing rows; about 4.8% have a hit in one of these screens.

SMILES	NS1 inh	Lassa entry inh	StopGo reporter	SARS PLpro yeast	Cruzain inh noDet	MARV entry inh	RE007 growth inh	Cruzain inh Det
Cc1ccc(-n2ncc3c(Nc4cccc(Cl)c4)ncnc32)c(C)c1	/	-19%[46.1 µM]	-2%	/	2%	/	/	-2.0%
CN(Cc1ccccc1)S(=O)(=O)c1csc(C(N)=O)c1	-4%	/	35%[activator]	-2%	/	/	-17%	/
O=C(CSc1ccc2nnc(-c3ccncc3)n2n1)Nc1ccc2c(c1)OCCO2	-31%	/	-9%	1%	-7%	-7%	16%	3.5%
O=C(CCN1CCCO1)N1CCCC(N2CCN(c3cccc(C(F)(F)F)c3)CC2)C1 (stereo not given)	0%	14%	-12%	-2%	/	-2%	2%	/
CC(=O)Nc1ccc(NC(=O)CSc2ccc(-c3sc(C)nc3C)nn2)cc1	3%	1%	5%	-1%	/	29%	-5%	/
COc1cccc2cc(C(=O)Nc3cccnc3N3CCOCC3)c(=O)oc12	-9%	13%	-12%	0%	-8%	-1%&-1%	-12%	4.5%
COc1ccc(C(=O)N2CC3(CC(c4cccc(NC(=O)COc5ccc(Cl)cc5)c4)=NO3)C[C@@H]2C(N)=O)cc1 (stereo not given in full)	-31%	/	?	1%	/	/	-8%	/
Cc1ccc(NC(=O)C2CCCO2)cc1[N+](=O)[O-] (stereo not given)	-2%	-2%	50%[activator]	15%	0%	?	-19%	-1.0%
Cc1ccc(C(=O)N2CCCC2)cc1S(=O)(=O)N1CCOCC1	5%	1%	-3%	1%	/	17%	?	/
COc1ccc(C)cc1Nc1n[n+](C)c(-c2c3ccccc3cc3ccccc23)s1	7%	/	-4%	-5%	/	/	-9%	/
Cc1ccc2oc(C(=O)N(C)CCC(O)c3ccccc3)c(C)c2c1 (stereo not given)	-4%	?	27%	-1%	/	0%	-12%	/
O=S(=O)(/N=C(/Nc1nccs1)c1ccc(F)cc1)c1ccccc1	/	2%	-14%	-2%	/	11%	-4%	/
NC(=O)CNC(=O)c1ccc(Cl)cc1	2%	2%	-9%	1%	/	11%	13%	/
O=C(O)c1cc2cc(Cl)cc(Cl)c2oc1=O	-5%	16%	0%	-4%	?	-28%	-10%	-3.4%
COc1ccc(NC(=O)CN(C)CC(=O)Nc2ccccc2SC)cc1	1%	25%	-1%	-19%	-2%	0%	4%	-1.7%
CCOc1cc(N2CCOCC2)c(OCC)cc1NC(=O)COC(=O)CCOc1ccc(C(C)(C)C)cc1	/	?	-5%	1%	/	5%	-13%	/
COc1ccc(OCC(=O)Nc2ccc(N3CCCCC3)cc2)cc1	-1%	-4%	-10%	-1%	/	-8%	-11%	/
O=C(c1ccc2ccccc2c1)N1CCN(c2ccc(C(F)(F)F)cn2)CC1	-9%	-4%	-8%	2%	3%	5%	-21%	-17%
CC(C)[C@H](NC(=O)N1CC(=O)Nc2ccccc21)C(=O)N1CCC[C@H]1C(=O)O	12%	/	-11%	-5%	/	/	5%	/
Cc1sc(NC(=O)/C=C/c2ccco2)c(C(=O)OC(C)C)c1C	-4%	?	-14%	16%	-10%	?	0%	-11%

Profiles, quoted from the list.
O=S(=O)(/N=C(/Nc1nccs1)c1ccc(F)cc1)c1ccccc1 is listed as NS1 inh: /; Lassa entry inh: 2%; StopGo reporter: -14%; SARS PLpro yeast: -2%; Cruzain inh noDet: /; MARV entry inh: 11%; RE007 growth inh: -4%; Cruzain inh Det: /
COc1ccc(C)cc1Nc1n[n+](C)c(-c2c3ccccc3cc3ccccc23)s1 is listed as NS1 inh: 7%; Lassa entry inh: /; StopGo reporter: -4%; SARS PLpro yeast: -5%; Cruzain inh noDet: /; MARV entry inh: /; RE007 growth inh: -9%; Cruzain inh Det: /

Returning to the listing with the 6 entries that preceded the break.
SMILES	NS1 inh	Lassa entry inh	StopGo reporter	SARS PLpro yeast	Cruzain inh noDet	MARV entry inh	RE007 growth inh	Cruzain inh Det
COc1ccc(NC(=O)CN(C)CC(=O)Nc2ccccc2SC)cc1	1%	25%	-1%	-19%	-2%	0%	4%	-1.7%
CCOc1cc(N2CCOCC2)c(OCC)cc1NC(=O)COC(=O)CCOc1ccc(C(C)(C)C)cc1	/	?	-5%	1%	/	5%	-13%	/
COc1ccc(OCC(=O)Nc2ccc(N3CCCCC3)cc2)cc1	-1%	-4%	-10%	-1%	/	-8%	-11%	/
O=C(c1ccc2ccccc2c1)N1CCN(c2ccc(C(F)(F)F)cn2)CC1	-9%	-4%	-8%	2%	3%	5%	-21%	-17%
CC(C)[C@H](NC(=O)N1CC(=O)Nc2ccccc21)C(=O)N1CCC[C@H]1C(=O)O	12%	/	-11%	-5%	/	/	5%	/
Cc1sc(NC(=O)/C=C/c2ccco2)c(C(=O)OC(C)C)c1C	-4%	?	-14%	16%	-10%	?	0%	-11%
COc1ccc(NC(=O)CSc2ccc(-c3sc(C)nc3C)nn2)cc1OC	-17%	-17%	?	0%	/	?	5%	/
O=C(CSc1n[nH]c(-c2cccs2)n1)N1CCOCC1	/	9%[46.1 µM]	22%	4%	/	?	8%	/
O=C(O)C1CC(=O)N(C2CCCCCC2)C1 (stereo not given)	-2%	6%	6%	0%	-4%	-6%	-15%	4.0%
COc1ccc(/C=C/CN2CCC(n3nccc3NC(=O)C3CCCC3)CC2)cc1	-1%	/	-8%	1%	/	/	0%	/
COc1ccc(-c2nnn(CC(=O)N(CC(=O)NCCC(C)C)c3ccccc3)n2)cc1OC	-2%	-5%	-3%	-4%	?	-1%&-11%	-4%	3.3%
Cc1nnc(SCC(=O)c2ccc(S(=O)(=O)N3CCOCC3)cc2)n1-c1ccccc1	9%	12%	-3%	0%	?	-1%	-4%	-3.2%
Cc1ccc(C(=O)Nc2nc(C)c(C(=O)Nc3ccc4c(c3)CCC4)s2)cc1	13%	?	32%[activator]	3%	7%	1.1µM*	-4%	-5.9%
CCOc1ccc(N2CC(C(=O)Nc3ccccc3N3CCCC3)CC2=O)cc1 (stereo not given)	-2%	?	-21%	-10%	/	12%[46.1 µM]	-3%	/
COc1cc(OC)cc(-c2nc3nc(C)c(CCC(=O)Nc4ccc(C)cc4C)c(C)n3n2)c1	/	3%[46.1 µM]	0%	/	-4%	2%[46.1 µM]	/	1.7%
COc1cccc(NC(=O)COc2ccc(S(=O)(=O)NC(C)C)cc2)c1	1%	-8%	7%	10%	-6%	4%	5%	-1.2%
Cc1nnc(C)c2c(C)n(C(c3ccccc3)c3ccccc3)c(C)c12	9%	12%	?	5%	?	?	-7%	-5.4%
COc1cc(/C=N/N2CCN(C3c4ccccc4-c4ccccc43)CC2)cc(OC)c1O	12%	6%	-19%	-5%	?	0%	10%	-2.6%
Cc1ccccc1NC(=O)CCC(=O)N/N=C/c1cc([N+](=O)[O-])ccc1O	-52%	?	-17%	9%	-8%	?	/	-2.9%
COc1cc(C(C)=O)ccc1OCC(=O)NCCCn1nc(C)cc1C	/	?	-8%	0%	/	-26%	-1%	/
COC(=O)C1C(c2ccccc2)C=CC(c2ccccc2)C1C(=O)O (stereo not given)	-4%	/	-13%	0%	/	/	23%	/
COc1cccc(CNC(=O)c2c(C)oc3nc(C)nc(N4CCOCC4)c23)c1	/	-4%[46.1 µM]	-8%	/	-10%	/	/	-1.0%
CC(=O)OC1COC(N2CCc3ccccc32)C(OC(C)=O)C1OC(C)=O (stereo not given)	5%	?	0%	25%	1%	14%	2%	-0.7%
CC(=O)NCCC(=O)Nc1cc(F)ccc1C	4%	-4%	-6%	11%	0%	-10%[46.1 µM]	0%	4.4%
COc1cc(OC)cc(C(=O)NCc2n[nH]c(=S)n2-c2ccccc2)c1	-3%	26%	-1%	-1%	3%	?	-9%	-1.8%
COc1ccc(-c2cn3c(n2)CCC3)cc1	0%	-24%	35%[activator]	-5%	0%	-27%	-21%	5.1%
CN(CCC#N)C(=O)COC(=O)c1ccccc1OCc1ccccc1Cl	/	-1%[46.1 µM]	-15%	-1%	/	0%[46.1 µM]	-2%	/
CN(C)S(=O)(=O)c1ccc(N2CCCC2)c(C(=O)N2CCN(S(=O)(=O)c3ccccc3F)CC2)c1	/	-25%	-6%	2%	/	-22%[46.1 µM]	9%	/
CCOC(=O)N1CCN(C(=O)CN(Cc2ccccc2)S(C)(=O)=O)CC1	1%	6%	-8%	1%	2%	0%	-13%	8.0%
COC(=O)c1cccc(N2CCCC2=O)c1	-9%	/	1%	-2%	/	/	0%	/
CC(=O)OCC=C1CCC2C3CCC4=CC(=O)CCC4(C)C3C(O)CC12C (stereo not given)	/	-4%[46.1 µM]	?	/	/	14%[46.1 µM]	14%	/
Cc1cc(C)cc(NC(=O)CSc2nnc(-c3ccncc3)o2)c1	/	1%	-14%	-8%	/	10%[46.1 µM]	-1%	/
O=c1c(Cc2c(F)cccc2Cl)c(O)ccn1C1CC1	3%	22%[46.1 µM]	24%	-3%	/	16%[46.1 µM]	1%	/
CCOC(=O)c1noc(C)c1C(=O)Nc1nc(C)cc(C)n1	/	18%[46.1 µM]	-13%	-1%	/	-17%[46.1 µM]	-29%	/
O=C(COC(=O)Cc1c(Cl)cccc1Cl)NCC1CCCO1 (stereo not given)	-11%	?	-4%	0%	/	?	-4%	/
